Screening results (PubChem BioAssay)
E coli growth = inhibitors of Escherichia coli growth. OD600, 23 h; stronger effect = lower value. OD600 absorbance (concentration not given with the values). hit rate 0.21% among 330,000. AID 1053175;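 active = OD600 absorbance below the run mean of sample wells minus 3.6 SD, in any replicate, cut at about 0.56 in these data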;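 also: stock transfer was 300 nL into about 60 µL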
ALR H2O2 inh = human ALR oxidase inhibition via reduced H2O2; AID 485317; P55789; hit rate 3.8% among 290,000; inhibition, % (test concentration not listed); purified ALR, DTT oxidation, H2O2 HRP-luminol luminescence;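 active = mean and each replicate at 75% or more; inconclusive = only one of the two met; inactive = neither met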;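 also: stock transfer was 7.5 nL into about 7.5 µL; 0% = neutral wells and 100% = wells with inactivated enzyme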
rRNA inh HTS = inhibits bacterial ribosomal RNA function over humanized ribosomes | E. coli WT GFP vs humanized-ribosome RFP mutants, fluorescence, 24 h; stronger effect = lower value; DMSO median 0, no signal -100 | GFP signal change (wild-type ribosome), % (test concentration not listed) | hit rate 1.6% among 350,000 | AID 720706;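 active = significant combined selectivity score with lowered wild-type GFP, culture density cut under 30%, mutant RFP and density less affected; inactive = any of these conditions unmet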; also: one replicate is shown; some compounds called inactive have numbers as strong as hits
FGF22 binding = binders of recombinant human FGF22 by thermal shift | Q9HCT0 | SYPRO orange fluorescence; percent of sucrose octasulfate shift, DMSO zero | calls only at 9.99 µM | hit rate 1.5% among 340,000 | AID 651658;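 active = melting point raised past a set limit in the mean and every replicate; inconclusive = no clear call; three in four hits are not shown here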
HNF4A DNA FP = change in binding of human HNF4 alpha to DNA; hit rate 0.3% among 360,000; HNF4a-FITC DNA binding, fluorescence polarization, 1 h; activity change, % at 10 µM; P41235; in the data active = activity change above about 30%, passing the limit was not always enough;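 also: controls were the assay level and a saturating level of protein; the project sought stronger binding though the title names inhibitors; some compounds called inactive have numbers as strong as hits; positive values seem to mean higher polarization but the record does not say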
Target sequence (P41235 whole entry, looked up): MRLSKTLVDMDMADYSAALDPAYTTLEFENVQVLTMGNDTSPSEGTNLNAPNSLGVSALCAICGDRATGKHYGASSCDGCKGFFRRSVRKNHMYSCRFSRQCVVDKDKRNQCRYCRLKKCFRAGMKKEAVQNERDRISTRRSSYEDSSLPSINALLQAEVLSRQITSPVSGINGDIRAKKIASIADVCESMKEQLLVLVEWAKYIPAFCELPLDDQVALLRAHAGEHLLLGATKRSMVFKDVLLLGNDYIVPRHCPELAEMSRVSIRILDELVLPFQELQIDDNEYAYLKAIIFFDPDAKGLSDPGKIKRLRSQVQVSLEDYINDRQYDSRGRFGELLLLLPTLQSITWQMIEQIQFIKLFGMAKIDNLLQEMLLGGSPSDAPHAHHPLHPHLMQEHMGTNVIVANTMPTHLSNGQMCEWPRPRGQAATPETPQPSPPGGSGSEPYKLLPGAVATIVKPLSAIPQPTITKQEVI
MLL AF4-AF9 inh = blocks AF4 peptide binding to human AF9; inhibition, % at 10 µM; hit rate 0.47% among 350,000; P42568; AlphaScreen, biotin-AF4 peptide binding to FLAG-AF9;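 active = every replicate reaching a set inhibition limit, whatever the replicate mean, cut at about 25% in these data; inconclusive = mean inhibition reaches that limit but some replicates miss it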;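 also: 0% = plate neutral control median and 100% = total signal loss; the record names both 10 and 1 µM as test concentration; the first replicate is given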
Target sequence (P42568 whole entry, looked up): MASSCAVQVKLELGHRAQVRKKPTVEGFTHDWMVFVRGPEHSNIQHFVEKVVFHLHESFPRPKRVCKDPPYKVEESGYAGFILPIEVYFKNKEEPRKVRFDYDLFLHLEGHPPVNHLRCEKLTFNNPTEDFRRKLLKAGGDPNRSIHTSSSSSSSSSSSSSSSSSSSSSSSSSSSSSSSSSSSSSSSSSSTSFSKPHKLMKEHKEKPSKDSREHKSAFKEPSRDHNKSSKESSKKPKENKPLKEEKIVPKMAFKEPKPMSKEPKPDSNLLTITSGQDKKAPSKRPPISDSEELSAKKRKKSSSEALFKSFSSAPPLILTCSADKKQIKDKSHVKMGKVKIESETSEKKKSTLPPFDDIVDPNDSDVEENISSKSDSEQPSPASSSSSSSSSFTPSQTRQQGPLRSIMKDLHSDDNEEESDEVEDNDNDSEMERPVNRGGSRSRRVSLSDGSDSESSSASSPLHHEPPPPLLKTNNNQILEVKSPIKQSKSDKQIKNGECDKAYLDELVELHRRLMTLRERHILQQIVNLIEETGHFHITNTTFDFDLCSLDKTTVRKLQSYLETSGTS
Vif A3G = inhibitors of Vif binding to APOBEC3G peptide, primary screen, biochemical, TR-FRET, GST-Vif 1-94, biotin-A3G peptide, dose response retest (AID 1117319); TR-FRET GST-Vif / biotin-A3G peptide binding; higher % means a stronger effect; test concentration not given here; strong numbers were not always called active; inhibition, %, or IC50 in µM where a hit was titrated; hit rate 0.57% among 260,000;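 active = above the screen mean plus three standard deviations and confirmed in dose response; inconclusive = results disagree or hit not tested in dose response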;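 also: Vif residues 1-94 fused to GST binding biotinylated APOBEC3G peptide 110-148; 0% = full assay without inhibitor and 100% = GST in place of GST-Vif; retest series ran down from 100 µM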
rRNA inh HTS OD600 = recorded beside rRNA inh HTS, whose call it bears; OD600 change, %; measured here: OD600 growth;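 optical density of the mix in the first replicate; 0 = DMSO median and -100 = no signal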
rRNA inh HTS RFP = recorded beside rRNA inh HTS, whose call it bears; RFP signal change, %; measured here: RFP humanized mutant strains;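 first replicate; 0 = DMSO median and -100 = no signal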
* = called active by the depositor; i = inactive; ? = inconclusive; . = not tested or not shown. These rows are one share of the data; count on the stated rates, not on these rows.

Start of the listing, in advance (five entries):
SMILES	E coli growth	ALR H2O2 inh	rRNA inh HTS	rRNA inh HTS OD600	rRNA inh HTS RFP	FGF22 binding	HNF4A DNA FP	MLL AF4-AF9 inh	Vif A3G
Nc1cc(N)cc(C(=O)c2ccccc2)c1	.	.	7	12	13	i	9.0	8.7	.
O=C(NCc1ccc(F)cc1)[C@H]1[C@H](CO)[C@H]2Cn3c(ccc(C4=CCCCC4)c3=O)[C@@H]1N2	.	.	-1	-8	-0.6	i	.	-12	.
C[C@H](NC(=O)C[C@H]1CC[C@@H]2[C@H](COC[C@@H](O)CN2Cc2cc(F)ccc2F)O1)c1ccccc1	.	.	-5	-14	-3.0	i	.	1.2	.
CO[C@H]1CN(C)C(=O)c2cc(NC(=O)Cc3ccccc3)ccc2OC[C@H](C)N(C)C[C@@H]1C	.	.	0	-1	1.9	i	.	-1.8	.
Cc1cc(NC(=O)Nc2ccc(Cl)c(Cl)c2)no1	0.67	.	-14	-14	2.5	i	-0.2	-2.2	.

Main list, repeating the preview:
SMILES	E coli growth	ALR H2O2 inh	rRNA inh HTS	rRNA inh HTS OD600	rRNA inh HTS RFP	FGF22 binding	HNF4A DNA FP	MLL AF4-AF9 inh	Vif A3G
Nc1cc(N)cc(C(=O)c2ccccc2)c1	.	.	7	12	13	i	9.0	8.7	.
O=C(NCc1ccc(F)cc1)[C@H]1[C@H](CO)[C@H]2Cn3c(ccc(C4=CCCCC4)c3=O)[C@@H]1N2	.	.	-1	-8	-0.6	i	.	-12	.
C[C@H](NC(=O)C[C@H]1CC[C@@H]2[C@H](COC[C@@H](O)CN2Cc2cc(F)ccc2F)O1)c1ccccc1	.	.	-5	-14	-3.0	i	.	1.2	.
CO[C@H]1CN(C)C(=O)c2cc(NC(=O)Cc3ccccc3)ccc2OC[C@H](C)N(C)C[C@@H]1C	.	.	0	-1	1.9	i	.	-1.8	.
Cc1cc(NC(=O)Nc2ccc(Cl)c(Cl)c2)no1	0.67	.	-14	-14	2.5	i	-0.2	-2.2	.
COc1cccc(C(=O)Nc2ccccc2NC(=O)c2cccc(OC)c2)c1	0.66	-11	-25	-16	-0.6	i	-1.1	-2.5	.
O=C(Cn1nc(CNc2ccc(Br)cc2)[n+]2c1CCCCC2)c1ccc([N+](=O)[O-])cc1	0.66	18	.	.	.	i	0.5	28*	13%
Cc1ccccc1NC(=O)Cc1cccs1	0.68	-5	5	7	-1.9	i	-0.7	-2.1	.
CCCCOC(=O)Nc1nnc(CC(=O)NCc2ccccc2)s1	0.71	0	16	17	-0.3	i	-1.4	-3.5	.
O=C(N[C@@H]1CC[C@@H](CCn2cc(C3CCCCC3)nn2)O[C@@H]1CO)c1cccnc1	.	.	-3	8	-2.1	i	.	-0.3	.
CCCC#Cc1ccc([C@@H]2[C@@H](CO)N3CCCCN(S(=O)(=O)Cc4ccccc4)C[C@@H]23)cc1	.	.	0	-21	15	i	.	-2.8	.
C[C@@H]1CN([C@@H](C)CO)C(=O)c2cc(C#CCN(C)C)cnc2O[C@H]1CN(C)Cc1ccccc1	.	.	1	0	-2.3	i	.	4.2	.
COc1ccc(-c2cnc3c(c2)C(=O)N([C@H](C)CO)C[C@H](C)[C@@H](CN(C)Cc2ccccc2)O3)cc1	.	.	-4	-2	2.4	i	.	5.0	.
O=C(NC(=O)N1CCN(c2ccc([N+](=O)[O-])cn2)CC1)c1c(Cl)cccc1Cl	0.68	-3	.	.	.	.	.	.	69%
Cc1c(C(=O)N2CCCc3ccccc32)oc2ccc(S(=O)(=O)N3CCOCC3)cc12	0.66	-8	-31	-40	7.3	i	6.1	-3.3	-3%
CC(C)NC(=O)Nc1ccc2c(c1)C(=O)N(C)[C@@H]1CC[C@H](CC(=O)Nc3ccccc3)O[C@H]1CO2	.	.	2	0	-1.0	i	.	-17	.
C=CCOc1ccc(/C=C(\C#N)C(=O)Nc2ccccn2)cc1OC	0.68	-7	8	9	-2.0	i	1.8	7.0	0%
CCC(C)C(NC(=O)C1CCC(C)CC1)C(=O)NCCc1ccc(S(N)(=O)=O)cc1 (centres undefined)	0.65	2	6	14	-1.2	i	1.1	-0.7	4%
CN(CCCNC(=O)Cn1cccc1C(=O)c1ccccc1)C1CCCCC1	0.7	-9	14	3	2.4	i	-0.5	-0.1	31%
C[C@@H]1CN([C@H](C)CO)S(=O)(=O)c2ccc(-c3cccnc3)cc2O[C@H]1CN(C)CC1CCOCC1	.	.	1	7	-1.0	i	.	6.8	.

Single entries from above:
`Cc1cc(NC(=O)Nc2ccc(Cl)c(Cl)c2)no1` @ MLL AF4-AF9 inh: -2.2
`Cc1ccccc1NC(=O)Cc1cccs1` @ MLL AF4-AF9 inh: -2.1

Further structures follow:
SMILES	E coli growth	ALR H2O2 inh	rRNA inh HTS	rRNA inh HTS OD600	rRNA inh HTS RFP	FGF22 binding	HNF4A DNA FP	MLL AF4-AF9 inh	Vif A3G
O=C1[C@H](Cc2ccccc2)NCC=CC[C@@H](c2ccc(Cl)cc2)N1Cc1ccc(Cl)cc1	.	.	-11	-15	31	i	-2.3	-25	.
COc1cccc(CC(NC(C)=O)C(=O)NC2CCN(c3nc(C)cc(C)c3C#N)CC2)c1 (centres undefined)	0.74	-2	.	.	.	.	-0.7	.	-26%
CC1(NC(=O)C2CCN(C(=O)Nc3ccccc3)CC2)CCS(=O)(=O)C1 (centres undefined)	.	-3	2	5	-3.1	i	8.9	-1.4	.
COc1ccc(N=Cc2c(O)cc(C)oc2=O)cc1	0.65	39	11	8	-2.2	i	0.2	0.9	3%
FC(F)(F)c1cccc(-c2nc(COc3ccc(Cl)cc3Cl)no2)c1	0.69	-4	-1	-5	-1.2	i	-2.4	-0.9	-10%
Cc1ccccc1Nc1nc(N)nc(COC(=O)c2c(C)noc2C)n1	0.68	5	3	2	-0.7	.	9.8	1.4	-1%
Cc1c(C(=O)c2ccc(F)cc2)c2ccccn2c1CCc1ccccn1	0.69	-45	12	4	41	i	-1.1	8.7	20%
O=S(=O)(c1ccc2ccccc2c1)N1CCCCCC1	0.68	-8	-43	-59	-4.7	i	-0.6	-11	-9%
Cc1cccc(C(C(=O)NC2CCCCC2)N(Cc2cccnc2)C(=O)c2csnn2)c1 (centres undefined)	0.63	-8	.	.	.	i	2.6	3.6	-9%
Cc1ccc(-c2ccc3c(c2)O[C@H](CN(C)Cc2ccccc2)[C@H](C)CN([C@H](C)CO)S3(=O)=O)cc1	.	.	0	-6	3.4	i	.	6.9	.
Cc1nc2ccccc2c(=O)n1NC(=O)C1CC1	0.67	-4	14	9	2.6	i	2.8	-3.1	-1%
N#C/C(=C(/O)CSc1nnc(Cc2cccs2)n1C1CCCCC1)c1nc2ccccc2[nH]1	.	-2	.	.	.	.	11	.	5%
O=c1c(-c2ccccc2)c(-c2ccccc2)oc2cc(O)cc(O)c12	0.63	-2	-10	-5	5.4	i	-7.0	-13	2%
CCNC(=O)CSc1nc2cc([N+](=O)[O-])ccc2n1-c1cccc(C(F)(F)F)c1	0.67	0	.	.	.	.	-3.3	.	2%
CCCCc1nnc(NC(=O)C2CC(=O)N(Cc3ccccc3)C2)s1 (centres undefined)	0.72	-1	4	12	0.0	i	-6.2	1.2	-3%
CCN(CC(=O)Nc1c(F)cccc1F)C(=O)c1cc2ccccc2oc1=O	0.68	.	9	7	0.5	i	0.2	0.2	-5%
CN(C)CC(=O)N1CCc2ccccc2C1	0.63	3	19	20	2.6	i	2.2	-0.5	.
CCOC(=O)c1nn(-c2ccc(F)cc2)c(=O)cc1OCC(=O)N1CCN(c2ccccc2)CC1	0.69	.	4	3	-3.9	i	1.6	0.3	2%
CC(OC(=O)c1ccc(Cl)c(S(N)(=O)=O)c1)C(=O)NCC1CCCCC1 (centres undefined)	0.7	16	.	.	.	i	-1.0	-2.5	.
Cc1ccc(S(=O)(=O)N(C)C[C@@H]2Oc3ccc(NS(=O)(=O)c4ccc(Cl)cc4)cc3C(=O)N([C@H](C)CO)C[C@H]2C)cc1	.	.	-4	-10	-1.5	i	.	1.1	.
O=C(Nc1ccccc1)c1cc(C2COCCN2C(=O)c2ccccn2)on1 (centres undefined)	.	.	12	19	0.6	i	-0.9	0.7	.
Cc1noc(C)c1NC(=O)Nc1ccc2c(c1)C(=O)N([C@H](C)CO)C[C@H](C)[C@@H](CN(C)Cc1ccc(Cl)c(Cl)c1)OCCCC[C@@H](C)O2	.	.	3	-3	-0.9	i	.	-4.2	.
Nc1c(S(=O)(=O)c2ccccc2)c2nc3ccccc3nc2n1Cc1ccco1	0.69	.	1	-41	13	.	-4.6	.	?
CC(C)C(=O)Nc1cccc(S(=O)(=O)NC2=NCCC2)c1	.	.	14	13	2.4	i	-1.5	1.6	.
CCOc1ccccc1-n1nnnc1SCc1nc2ccccc2s1	0.67	-3	.	.	.	.	-0.7	.	-1%
O=C1c2ccccc2C(=Cc2cccnc2)c2ccccc21	.	.	-16	-6	10	.	4.6	1.5	10%
O=C(O)CCc1ccc(-c2ccc(F)cc2)n1Cc1ccco1	0.67	39	.	.	.	.	-4.1	.	30%
COc1cc(/C=C/c2[nH]c(=O)[nH]c(=O)c2[N+](=O)[O-])cc([N+](=O)[O-])c1O	0.69	4	0	16	-2.1	i	-5.2	-3.2	22%
CC(C)(C)NC(=O)CN1C(=O)NC(c2ccccc2)(c2ccccc2)C1=O	0.66	.	.	.	.	i	-2.2	3.0	6%
CCCCN(C(=O)c1cc2ccccc2o1)c1c(N)n(CCC)c(=O)[nH]c1=O	0.68	-7	12	10	0.7	i	-0.7	-2.4	?
CCOC(=O)C(NC(=O)c1ccccc1Cl)(Nc1ccc(C)c(C)c1)C(F)(F)F (centres undefined)	0.68	0	.	.	.	.	3.1	.	.
Cc1ccc(C(=O)NC(NCC2CCCO2)C(Cl)(Cl)Cl)cc1 (centres undefined)	0.68	0	.	.	.	i	5.0	-2.4	.
COc1cc(/C=C2/SC(=S)N(c3ccccc3)C2=O)ccc1Oc1nc(N2CCOCC2)nc(N2CCOCC2)n1	0.73	.	7	11	2.9	i	3.4	2.1	-12%
O=C(CC(F)(F)F)N1C[C@@H]2[C@H](c3ccccc31)[C@H](CO)N2C(=O)C1CCCCC1	.	.	0	7	0.8	i	.	-1.3	.
CCCC#Cc1cnc2c(c1)C(=O)N([C@@H](C)CO)C[C@H](C)[C@@H](CN(C)C(=O)CN1CCOCC1)O2	.	.	5	2	-1.8	i	.	3.5	.
C[C@H](CO)N1C[C@H](C)[C@H](CN(C)C(=O)Nc2ccc3c(c2)OCO3)Oc2c(NC(=O)C3CC3)cccc2C1=O	.	.	-2	-4	1.9	i	.	-8.2	.
Cc1ccc2cc(C)c(N3CCN(c4ccc(F)cc4)CC3)nc2c1	0.69	-8	-2	13	8.9	i	-1.2	-1.8	-1%
COc1ccc(CN2C(=O)CCC2(C)C(=O)NCc2cccnc2)c(OC)c1 (centres undefined)	0.69	-7	.	.	.	.	-2.1	.	4%
COC(=O)c1ccc(N/C(=N/S(=O)(=O)c2ccccc2)c2ccccc2)cc1	.	-5	-39	-50	-9.3	i	-0.5	-46	22%
